Compound activity as filed in PubChem.
rRNA inh HTS: selective bacterial rRNA inhibition in E. coli. E. coli WT GFP vs humanized-ribosome RFP mutants, fluorescence, 24 h; hits give low values; DMSO median 0, no signal -100. GFP signal change (wild-type ribosome), % (no concentration beside the values). 350,000 compounds, 1.6% hits;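 active = significant combined selectivity score with lowered wild-type GFP, culture density cut under 30%, mutant RFP and density less affected; inactive = any of these conditions unmet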; also: one replicate is shown; some compounds called inactive have numbers as strong as hits
Calb FLC: C. albicans growth modulation with fluconazole; 300,000 compounds, 0.57% hits; AID 1979; C. albicans CaCi-2 (fluconazole-resistant clinical isolate) + fluconazole, Alamar Blue growth, 48 h; growth inhibition, % (test concentration not listed);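 active = most replicates above 75%; inconclusive = exactly half above 75%; inactive = most below 75%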;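 also: all wells also contain fluconazole at 8 µg/ml as a sub-toxic cotreatment; 0% = median of DMSO wells and 100% = median of geldanamycin control wells; wells of about 8 µL received 7.5 nL stock; the first replicate is given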
Vif TR-FRET: HIV-1 Vif–A3G interaction blockers – biochemical, TR-FRET, GST-Vif 1-94, biotin-A3G peptide, dose response retest, primary screen (AID 1117319). 260,000 compounds, 0.57% hits. TR-FRET GST-Vif / biotin-A3G peptide binding; higher % means a stronger effect; test concentration not given here; strong numbers were not always called active. inhibition, %; hits with a dose series show IC50 in µM;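 active = above the screen mean plus three standard deviations and confirmed in dose response; inconclusive = results disagree or hit not tested in dose response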;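 also: Vif residues 1-94 fused to GST binding biotinylated APOBEC3G peptide 110-148; 0% = full assay without inhibitor and 100% = GST in place of GST-Vif; retest series ran down from 100 µM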
AF4-AF9 inh: MLL-AF4/AF9 protein interaction inhibition; 350,000 compounds, 0.47% hits; inhibition, % at 10 µM; AlphaScreen, biotin-AF4 peptide binding to FLAG-AF9;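 active = every replicate reaching a set inhibition limit, whatever the replicate mean, cut at about 25% in these data; inconclusive = mean inhibition reaches that limit but some replicates miss it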;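 also: 0% = plate neutral control median and 100% = total signal loss; the record names both 10 and 1 µM as test concentration; the first replicate is given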
Target sequence (P42568 whole entry, looked up): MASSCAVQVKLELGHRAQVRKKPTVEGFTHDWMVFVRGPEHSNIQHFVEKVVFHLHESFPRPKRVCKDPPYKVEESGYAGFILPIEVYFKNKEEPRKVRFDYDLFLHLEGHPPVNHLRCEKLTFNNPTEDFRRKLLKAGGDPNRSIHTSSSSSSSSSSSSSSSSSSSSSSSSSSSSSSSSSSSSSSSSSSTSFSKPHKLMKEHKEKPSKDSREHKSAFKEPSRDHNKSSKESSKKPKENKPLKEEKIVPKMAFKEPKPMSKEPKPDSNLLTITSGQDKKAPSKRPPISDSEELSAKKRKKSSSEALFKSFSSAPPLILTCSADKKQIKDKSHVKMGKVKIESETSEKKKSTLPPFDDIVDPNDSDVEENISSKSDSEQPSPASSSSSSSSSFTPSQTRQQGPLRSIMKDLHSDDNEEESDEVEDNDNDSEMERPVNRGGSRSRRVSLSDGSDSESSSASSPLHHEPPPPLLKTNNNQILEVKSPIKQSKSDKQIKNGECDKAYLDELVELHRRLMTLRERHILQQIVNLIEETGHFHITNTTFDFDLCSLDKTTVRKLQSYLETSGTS
Beta cell apopt: beta cell apoptosis inhibition | protection from apoptosis, % (no concentration beside the values) | 300,000 compounds, 0.8% hits | INS-1E cytokine-induced death, ATP luminescence, 48 h; percent of positive-control rescue, neutral wells zero | AID 435005;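 active = all replicates at 75% or more, or half of them and the mean; inconclusive = half reach 75% but not the mean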;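 also: 0% = cytokine-treated negative control wells and 100% = positive control rescue; higher means more ATP so stronger rescue from cytokine killing; wells of about 40 µL received 100 nL stock; the first replicate is given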
RanGTP-Impb inh: disruptors of Ran-importin-beta complex formation – biochemical, FRET, CFP-Ran, YFP-importin-beta, homogeneous, primary screen | cell-free CFP-Ran/YFP-importin-beta FRET ratio | inhibition, % (concentration not given with the values) | 300,000 compounds, 1.1% hits;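 active = most replicates above 15%; inconclusive = exactly half above 15%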;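 also: 0% = DMSO wells and 100% = Ran loaded with GDP instead of GTP; wells of about 40 µL received 100 nL stock; the first replicate is given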
T cruzi repl: blocks replication of Trypanosoma cruzi. T. cruzi beta-gal in NIH3T3, luminescence, 90 h. inhibition, % (no concentration beside the values). 300,000 compounds, 1.4% hits;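 active = mean inhibition across valid replicates above about 55%, limit read from the data; inconclusive = mean below that limit but half or more replicates reach it; inactive = mean below it, under half of replicates reach it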;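 also: signal also drops with host cell toxicity which is not excluded here; 0% = plate median of DMSO wells and 100% = zero luminescence signal; higher percent means less beta-gal luminescence so fewer parasites; stock transfer was 50 nL into about 50 µL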
Bfl-1 A1 inh: inhibitors of the anti-apoptotic protein A1, read as caspase activation; MEF A1-2A-BIM cells, Caspase-Glo 3/7 luminescence, 3 h; percent of clofoctol response, vehicle zero; caspase activation, % (no concentration beside the values); 330,000 compounds, 0.066% hits; AID 2462;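 active = over half of replicate activation scores above 10%, or exactly half above 10 with the replicate mean above 10; inconclusive = replicate mean below 10 yet half the replicates above 10; inactive = over half of replicates below 10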;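 also: wells of about 30 µL received 50 nL stock; many hits fall short of the cut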
rRNA inh HTS OD600: second read-out of rRNA inh HTS, no call of its own (marks repeat the call); OD600 change, %; measured here: OD600 growth;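 optical density of the mix in the first replicate; 0 = DMSO median and -100 = no signal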
rRNA inh HTS RFP: further read-out of rRNA inh HTS, marked with its call; RFP signal change, %; measured here: RFP humanized mutant strains;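 first replicate; 0 = DMSO median and -100 = no signal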
The depositor's hits bear a star; ? = inconclusive; . = no result given; & = joins results of further samples. A portion of the library; the hit share may differ from the screen's.

Values run as follows: rRNA inh HTS	rRNA inh HTS OD600	rRNA inh HTS RFP	Calb FLC	Vif TR-FRET	AF4-AF9 inh	Beta cell apopt	RanGTP-Impb inh	T cruzi repl	Bfl-1 A1 inh
[1] CCC(C)NCCCOc1ccc(C)cc1OC (centres undefined)
 : 15.2	-2.1	-2.2	-3.9	4.0%	1.2	-5.9	2.2	23.0	2.0
[2] CCc1noc(C)c1C(=O)N1CCN(S(=O)(=O)c2ccccc2C(F)(F)F)CC1
 : -2.1	4.7	2.9	.	-11.3%	2.4	-11.8	.	.	1.4
[3] O=C(CN1CCN(C(=O)c2cncn2-c2ccc(F)cc2)CC1)Nc1ccccc1C(F)(F)F
 : 1.9	6.5	0.8	.	.	-2.3	3.0	.	.	0.4
[4] COc1cc(OC)cc(-c2nc(-c3ccc(Br)cc3)no2)c1
 : .	.	.	1.3	?	.	5.3	?	-14.6	-2.7
[5] CCc1ccccc1NC(=O)NCCN1CCCCC1
 : 8.8	4.9	-1.7	-5.1	.	-3.7	-10.3	2.8	1.4	-0.3
[6] COc1ccccc1CN1C[C@@H]2C[C@@H](C3=Cc4cc(Cl)ccc4OC3)N3CCC[C@@]23C1=O
 : -51.5	-77.8	-6.7	?	-0.5%	4.4	-13.0	-0.1	2.9	0.1
[7] CCCSCC(=O)Nc1ncc2c(n1)-c1ccccc1CC2
 : 21.2	5.0	19.5	25.5	9.9%	-3.9	-7.8	5.0	0.5	-0.8
[8] COC(=O)C1=C(C(=O)OC)[C@@H]2N(C)c3ccc(OC)cc3[C@@]23C[C@@H](C(=O)OC)N(C(=O)c2ccco2)C3=N1
 : 8.5	8.4	2.0	1.1	.	.	-7.3	-5.5	-6.7	?
[9] CCc1ccc(NC(=O)C2C3CCC(O3)C2C(=O)O)cc1 (centres undefined)
 : 24.7	10.5	1.6	-0.5	-3.3%	-5.0	0.2	0.4	-26.1	-0.4
[10] c1cncc(-c2nc(NCc3ccc4c(c3)OCO4)c3ccccc3n2)c1
 : -45.0	-60.9	-5.4	4.1	.	3.7	8.0	5.3	68.7*	-0.8

Further structures.
Values run as follows: rRNA inh HTS	rRNA inh HTS OD600	rRNA inh HTS RFP	Calb FLC	Vif TR-FRET	AF4-AF9 inh	Beta cell apopt	RanGTP-Impb inh	T cruzi repl	Bfl-1 A1 inh
[11] COc1cccc(N2CCN(C3C4CC5CC(C4)CC3C5)CC2)c1 (centres undefined)
 : .	.	.	-16.8	0.4%	.	1.4	-1.5	5.6	0.0
[12] COc1ccc(NC(C)=O)cc1NC(C)C(=O)Nc1ccccc1F (centres undefined)
 : .	.	.	6.9	7.7%	.	3.2	-7.6	-8.7	0.3
[13] CCOc1ccc([C@@H]2CC=C(C(=O)O)CN2S(=O)(=O)c2ccc(C)cc2)cc1
 : -26.1*	-20.5*	-10.4*	.	.	0.7	-0.4	.	.	0.5
[14] CCOC(=O)C1=C(O)/C(=C\c2cc(C)n(-c3ccccc3F)c2C)N=C1C
 : 18.5	15.2	3.5	15.1	-4.8%	0.3	-1.3	4.1	-3.3	0.3
[15] CC1CCCC(NC(=O)CCC(=O)NCc2ccccc2)C1C (centres undefined)
 : 3.5	-3.6	-0.5	-4.2	-6.6%	-2.0	.	-3.3	-0.3	-0.4
[16] CC(C)C(=O)Nc1ccc(NC(=O)c2ccc(COc3ccccc3)cc2)cc1
 : 11.1	9.8	-0.4	29.7	.	2.4	2.6	-2.4	-9.7	0.3
[17] O=C(CCNS(=O)(=O)c1ccc(Br)cc1)NCCc1ccccc1
 : -2.9	-8.5	-2.2	6.5	-1.9%	-2.7	2.7	6.0	6.8	-0.7
[18] CSc1nc(C)cc(NC(N)=O)n1
 : .	.	.	-2.6	16.5%	.	-1.4	3.6	-3.6	-0.1
[19] CC(C(=O)O)N1C(=O)c2cccc3cccc1c23 (centres undefined)
 : .	.	.	-1.6	0.2%	.	-2.2	4.6	-14.6	-0.4
[20] CC1(c2ccc3c(c2)OCCO3)NC(=O)N(CC(=O)Nc2ccccc2)C1=O (centres undefined)
 : 5.8	2.3	-2.8	.	-7.5%	0.5	-0.2	.	.	-0.2

Going on with the list:
Values run as follows: rRNA inh HTS	rRNA inh HTS OD600	rRNA inh HTS RFP	Calb FLC	Vif TR-FRET	AF4-AF9 inh	Beta cell apopt	RanGTP-Impb inh	T cruzi repl	Bfl-1 A1 inh
[21] O=C(Nc1cc(Cl)ccc1Oc1ccccc1)c1cnccn1
 : .	.	.	-7.2	68.1%	.	-1.3	-2.5	8.2	0.3
[22] Cc1csc(NC(=O)c2ccc(=O)[nH]c2)n1
 : 7.9	10.7	1.6	-4.2	1.9%	0.0	1.1	4.5	-1.9	0.0
[23] Cc1c(Cc2ccccc2)c(=O)oc2c(C)c(OCC(=O)N[C@@H](Cc3ccccc3)C(=O)O)ccc12
 : .	.	.	-1.9	.	-2.8	-8.5	3.0	-15.1	0.1
[24] CCOC(=O)CNC(=O)Cn1cnc2sc(C)c(S(=O)(=O)N3CCOCC3)c2c1=O
 : 5.8	2.2	-2.9	18.1	3.3%	-1.3	-2.1	0.7	-11.6	1.6
[25] Cc1ccc2c(CNCc3ccccc3)cc(=O)oc2c1
 : -2.8	-2.1	2.4	-3.6	.	3.6	.	1.4	1.8	0.3
[26] O=C(NC(Cc1ccc2c(c1)OCO2)C(=O)N1CCCC1C(=O)O)c1ccccc1 (centres undefined)
 : 5.6	0.2	-2.4	-0.2	-1.7%	1.8	-5.7	-3.9	-23.2	-0.2
[27] COC(=O)C1=CN(CCCN2CCCC2=O)C=C(C(=O)OC)C1c1ccccc1C(F)(F)F
 : .	.	.	7.0	-3.1%&0.2%	.	-3.5	115.8*	22.0	0.5
[28] COc1ccc(C(=O)Nc2ccc(N3CCOCC3)cc2)cc1OC
 : .	.	.	-8.3	6.2%	.	12.5	-1.0	1.1	-1.4
[29] O=C(CCC1CCCN(Cc2ccc(O)c(Cl)c2)C1)NCc1ccccc1F (centres undefined)
 : -6.7	-12.0	-0.7	-18.2	-3.4%	0.1	0.6	4.6	65.4*	1.0
[30] O=C(CSc1cn[nH]n1)Nc1ccccc1F
 : 6.0	7.3	0.1	0.0	1.9%	-1.2	-5.7	-0.3	2.9	0.2

Following part.
Values run as follows: rRNA inh HTS	rRNA inh HTS OD600	rRNA inh HTS RFP	Calb FLC	Vif TR-FRET	AF4-AF9 inh	Beta cell apopt	RanGTP-Impb inh	T cruzi repl	Bfl-1 A1 inh
[31] O=C(NC(=S)NNC(=O)c1ccccc1O)c1ccc([N+](=O)[O-])cc1
 : 4.4	-1.6	-5.0	2.0	7.0%	-10.1	9.6	-0.8	-15.3	-1.1
[32] Cc1nc2nc(C)c(CCC(=O)O)c(C)n2n1
 : .	.	.	2.1	-3.0%	.	-11.2	-0.1	-14.1	-0.1
[33] CC1(C)CC(=O)C=C(NCCc2c[nH]c3ccccc23)C1
 : 8.9	-6.3	-2.7	-9.4	.	6.3	-1.0	-2.4	14.0	-3.6
[34] CC(C)Cc1nnc(NC(=O)CCC(=O)Nc2ccccc2)s1
 : 5.0	12.8	-1.9	-7.2	.	1.0	-3.3	0.0	12.5	-0.4
[35] O=C(CSc1nnc(CCc2ccccc2)n1-c1ccc(Cl)cc1)NCc1ccccc1
 : .	.	.	-3.8	-6.0%	.	-11.0	-5.6	23.5	0.4
[36] CC(=O)Nc1cccc(N/C=C(\C=O)c2nc3ccccc3o2)c1
 : .	.	.	14.2	-3.8%	.	-6.6	1.4	-22.6	0.5
[37] COCCCNC(=S)N(CCCO)Cc1cc2cc3c(cc2[nH]c1=O)OCO3
 : 19.1	21.0	2.6	0.5	.	-14.8	-7.4	-3.9	-11.7	-1.6
[38] O=C(C1CCCCC1)N1CCC(CO)(Cc2ccccc2Cl)CC1
 : -38.0	-50.6	-10.2	29.4	8.0%	0.1	4.1	2.4	11.6	0.9
[39] CCC(C)Sc1nnc(CNC(=O)C23CC4CC(CC(C4)C2)C3)n1C1CCCCC1 (centres undefined)
 : .	.	.	-14.5	.	.	10.7	2.5	48.8	-0.3
[40] O=C(CSc1nc2ccc([N+](=O)[O-])cc2[nH]1)c1ccc2ccccc2c1
 : .	.	.	41.6	4.8%	.	5.7	4.6	-7.9	-0.7

Continued.
Values run as follows: rRNA inh HTS	rRNA inh HTS OD600	rRNA inh HTS RFP	Calb FLC	Vif TR-FRET	AF4-AF9 inh	Beta cell apopt	RanGTP-Impb inh	T cruzi repl	Bfl-1 A1 inh
[41] CCOC(=O)Cn1nc(NC(=O)c2ccc3c(c2)OCO3)cc1C
 : 0.6	3.6	-0.5	30.7	.	-0.8	4.4	0.8	2.3	-1.3
[42] O=C(COC(=O)/C=C/C(=O)N1CCN(c2ccccc2)CC1)NCc1ccc(F)cc1
 : 6.3	-7.2	3.5	-8.2	3.0%	-0.1	-3.2	-1.5	-3.7	0.0
[43] CCOC(=O)c1cc2oc(C)cc2n1CC(=O)OC1CCCCC1
 : -11.2	-16.9	-7.2	-12.2	?	13.6	.	-5.4	-6.7	1.2
[44] O=C(COC(=O)c1cnccn1)Nc1cc(S(=O)(=O)N2CCOCC2)ccc1Cl
 : 8.1	3.5	1.7	.	-11.1%	-1.4	-6.8	.	.	0.4
[45] c1ccc(Cc2noc(CN3CCCN(C4Cc5ccccc5C4)CC3)n2)cc1
 : -0.8	1.0	8.8	1.1	.	5.5	-5.2	0.2	47.9	-0.1
[46] Cc1ccc2nc(-c3ccccn3)cc(C(=O)N3CCN(c4ncccn4)CC3)c2c1
 : .	.	.	7.0	12.9%	.	-1.2	.	.	0.3
[47] Cc1ccnc(NC(=O)c2ccc(NC(=O)CC3SC(N4CCCC4)=NC3=O)cc2)c1 (centres undefined)
 : 8.3	15.0	0.7	.	0.2%	-4.9	-1.2	-0.6	-5.8	0.4
[48] COc1ccc(OCCOC(=O)CNC(=O)c2cccc(C)c2)cc1
 : 2.1	10.2	-2.5	.	4.7%	-2.9	-3.5	3.9	-14.7	-0.3
[49] CC(C(=O)NC(=O)NC1CCCCC1)N1CCN(c2ccccn2)CC1 (centres undefined)
 : .	.	.	1.7	13.1%	.	0.8	3.6	-0.1	-2.0
[50] CCOc1ccc(NC(=O)CN(C)C(=O)C2CCN(C(=O)c3ccc(Cl)cc3)CC2)cc1OCC
 : 1.6	-1.3	-0.5	.	-5.3%	1.8	-4.5	.	.	0.9
[51] O=C(CCC1CCCC1)Nc1ccccc1-c1ccccc1
 : .	.	.	-7.0	-7.8%	.	-3.6	-1.5	0.7	0.5
